# VDR inhibitor – vitamin D3 receptor (human) inhibition; 400,000 tested, 0.93% active; VDR-SRC2-3 peptide fluorescence polarization, 2 h; Potency, µM, without a hit: max response, negative = inhibition, usual class: inhibitors; AID 504847; active = well fitted inhibition curve with a large enough effect; inconclusive = small, poorly fitted or top-dose-only effect, or another doubt; inactive = no such curve, though single readings can be large or run the other way; also: series mostly up to about 120 µM
# Target sequence (P11473 whole entry, looked up): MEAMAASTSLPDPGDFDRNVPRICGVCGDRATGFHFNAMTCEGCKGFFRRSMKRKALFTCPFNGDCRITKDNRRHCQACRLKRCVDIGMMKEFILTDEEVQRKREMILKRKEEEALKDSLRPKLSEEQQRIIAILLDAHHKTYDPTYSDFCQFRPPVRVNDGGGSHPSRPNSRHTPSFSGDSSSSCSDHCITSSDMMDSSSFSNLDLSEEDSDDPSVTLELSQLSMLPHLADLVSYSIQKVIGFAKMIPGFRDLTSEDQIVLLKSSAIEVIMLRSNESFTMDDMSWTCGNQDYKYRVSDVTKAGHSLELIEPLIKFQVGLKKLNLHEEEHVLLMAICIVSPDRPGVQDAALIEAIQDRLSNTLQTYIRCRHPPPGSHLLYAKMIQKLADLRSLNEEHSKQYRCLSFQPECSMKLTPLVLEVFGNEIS
#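 Reagent solutions, kept cold and dark, are dispensed first; compounds are then pinned in at 23 nl, plates briefly spun, and incubated 2 h at ambient temperature. Inhibition of VDR–SRC2-3 peptide binding is read by fluorescence polarization.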
# * marks the source's active call; other numbers are inactive results; ? = inconclusive; & = joins results of further samples. % is scaled to controls: 0 for no effect and ±100 for the full control effect; potency is read from the fitted curve at half-maximal effect. A portion of the library (hit frequency here may not be typical).
SMILES,VDR inhibitor
CCNC(=O)c1c(NC(=O)c2cc(-c3cc(C)cc(C)c3O)n[nH]2)sc2c1CCCC2,-10%
CCCN(CCC)CC(O)CN(c1ccccc1)S(=O)(=O)c1ccc(C)cc1 (stereo unspecified),6%
O=C(CN1CCCCC1)Nc1ccc(N2CCCCCC2)cc1,-11%
CCc1ccc(CNC(=O)CSc2c3c(nc4ccc(Cl)cc24)CCCC3)cc1,-14%
Cc1cc2c(C)nc(N/N=C/c3ccc([N+](=O)[O-])cc3)nc2o1,-3%
C=CCn1c(Cc2ccc(OC(C)C)c(Cl)c2)nnc1SCC(N)=O,4%
COCCCNC(=O)c1cc2cc3cc(OC)ccc3nc2o1,-22%
C=C(C(=O)Nc1ccccc1)c1ccc(C)cc1,-16%
Cc1ccccc1OCCCC(=O)NCc1ccco1,1%
Cc1ccc(S(=O)(=O)Nc2nnc(C(C)(C)C)s2)cc1,-25%
O=C(Cc1cccc(C(F)(F)F)c1)Nc1ccccc1N1CCCC1,-9%
O=C(CCCN1C(=O)/C(=C\c2cccs2)SC1=S)NNC(=O)c1ccncc1,-9%
Cc1ccc(-n2c3nc(=O)[nH]c(=O)c-3cc3c(C)nn(-c4ccccc4)c32)cc1C,1%
Cn1c(=O)c2c(nc(Cl)n2CC(=O)N2CCCCC2)n(C)c1=O,-8%
COc1ccc(C(=O)n2nnc3ccccc32)cc1Br,-7%
O=c1n(Cc2ccccc2Cl)c2sc3c(c2c2ncnn12)CCCC3,8%
CCOc1ccc(N(CC(=O)O)S(=O)(=O)c2ccc(OC)c(OC)c2)cc1,14%
Cc1[nH]c(C(=O)O)c(C)c1C(=O)OC(C)C,-13%
CC(=O)N1CCC2(CC1)CN(Cc1ccc(C#N)cc1)C2,-9%
N#Cc1cccc(NC(=O)N2CC3(CCN(C(=O)c4cc(C(F)(F)F)cc(C(F)(F)F)c4)CC3)C2)c1,5%
COc1cccc(C(=O)CN2C(=O)C(C)(C)Oc3ccc(C(=O)N4CCOCC4)cc32)c1,-21%
COc1cc(OC)cc(-n2c(=O)c3sccc3n(Cc3c(C)cc(C)cc3C)c2=O)c1,7%
COc1ccc(N(CC(=O)Nc2ccc(S(=O)(=O)N3CCCCC3)cc2)S(C)(=O)=O)cc1OC,14%
CCCCCCCCC(=O)N/N=C(\C)c1ccc(O)cc1O,2%
O=S(=O)(c1ccc(Cl)cc1)N1CCCN(c2nc3ccc(Cl)cc3s2)CC1,4%
Cc1cc(NC(=S)NC(=O)CC(C)C)ccc1Br,-13%
CC1CCN(C(=O)COC(=O)Cn2cnc3c2c(=O)n(C)c(=O)n3C)CC1,4%
O=C(Cc1ccccc1)NCC(=O)N1CCC2(CC1)NCCc1[nH]cnc12,-17%
O=C(Nc1ccc2oc(-c3cccnc3)nc2c1)c1ccc(-c2ccccc2)o1,-18%
COc1ccc(NC(=O)CSc2nc(-c3cccs3)cc(C(F)(F)F)c2C#N)cc1,10%
CCN(CC)CC(=O)Nc1sc(C)cc1C(=O)c1ccc(C)cc1,-4%
Brc1cccc(CSc2nnc(-c3ccncc3)o2)c1,-17%
COc1ccc(N2CCN(C(=O)[C@H](C)NC(=O)c3ccccc3Cl)CC2)cc1,14%
O=C(Cc1ccccc1)Nc1ccc(N2CCN(Cc3ccccc3F)CC2)cc1,1%
COc1ccc(C(=O)NCCn2cc(SCC(=O)Nc3ccc4c(c3)OCCO4)c3ccccc32)cc1,7%
COc1ccc(OC)c(CCNc2nccn(-c3ccc(C)c(C)c3)c2=O)c1,-4%
CNC(=O)c1ccc(CNC(=O)OCC(F)(F)F)cc1,-9%
S=c1[nH]nc(CCc2ccccc2)n1-c1ccccc1,5%
COCC(=O)OCC(=O)Nc1cc(C(C)(C)C)nn1-c1ccccc1,14%
COc1ccc(N2CCN(CCC(N)=O)CC2)cc1,-1%
O=C1C2C3C=CC(C4CC34)C2C(=O)N1CCc1ccccc1 (stereo unspecified),5%
COC(=O)c1ccc(NC(=O)c2ccccc2)o1,12%
CCCCOc1ccc([N+](=O)[O-])cc1C(=O)O,14%
O=[N+]([O-])c1c(NCc2ccco2)ncnc1NCc1ccco1,-14%
COc1ccc(/C=C(\NC(=O)c2ccc(OC)cc2)C(=O)Nc2cccc(C(=O)O)c2)cc1,8%
Cc1cc(N)n(-c2ncnc3scc(-c4ccccc4)c23)n1,-2%
CCOC(=O)c1c(NC(C)=O)c2c3c(sc2n1Cc1nc(-c2cccc(Cl)c2)oc1C)CCCC3,-3%
O=C(COc1nsnc1N1CCOCC1)Nc1cccc(Cl)c1,-5%
N#C/C(=C\c1cccc(OCC(=O)O)c1)c1nc2ccccc2[nH]1,-22%
COc1cccc(CN2CCN(C3CCN(c4cccc(C)c4C)CC3)CC2CCO)c1 (stereo unspecified),3%
# (cont.)
SMILES,VDR inhibitor
COc1ccc(CC(=O)NNc2ncnc3c2cnn3C)cc1,-16%
COc1ccc(OC)c(C2=NOC(C(=O)NCCN3CCOCC3)C2)c1 (stereo unspecified),9%
CC1(C)Cc2c(c(-c3ccccc3)nc3[nH][nH]c(=O)c23)CO1,-21%
COc1ccc(N2CCN(C(=O)c3ccc4c(c3)CC(c3ccccc3)OC4=O)CC2)cc1 (stereo unspecified),-13%
CN(c1ccccc1C(=O)N1CCc2ccccc2C1)S(C)(=O)=O,?
O=S(=O)(c1ccccc1)c1cnc2ccccc2c1,?
CCN(Cc1ccccc1)C(=O)c1c[nH]c2ccc(S(=O)(=O)N(C)CCC#N)cc2c1=O,-11%
Cc1cc(C)nc(N2N=C(C(F)(F)F)CC2=O)n1,-7%
CC1CCc2sc(C(=O)N(C)CC(=O)Nc3cccc(F)c3)cc2C1 (stereo unspecified),-17%
CCCCN(CCCC)CCC(O)c1cc2c(Cl)cc(Cl)cc2c2cc(C(F)(F)F)ccc12 (stereo unspecified),-15%&-4%
Cc1ccc(Nc2c(-c3ccc(N4CCOCC4)cc3)nc3ncccn23)cc1C,-5%&6%
CCOC(=O)c1nn(-c2ccccc2)c(=O)cc1OCC(=O)Nc1ccccc1OCC,-27%
CC(C)c1ccc(S(=O)(=O)Nc2ccc(O)c(Sc3nc4ccccc4s3)c2)cc1,-5%
O=C(NCc1ccccn1)C(=O)N/N=C/c1ccccc1O,16%
Cc1ccc(S(=O)(=O)N2CCCCC2)cc1NC(=O)Cc1cccs1,-5%
CC(=O)N/C(=C\c1ccc(C)cc1)C(=O)O,-12%
C=CCn1c(SCC(=O)c2ccc(O)c(O)c2)nnc1-c1cccc(OC)c1,-12%
Cc1c(NC(=O)COC(=O)/C=C/c2cccc(Br)c2)c(=O)n(-c2ccccc2)n1C,-5%
CC(=O)NC1=NN(C(C)=O)C(C)(CC(=O)OC(C)(C)C)S1 (stereo unspecified),-26%
O=C(CCC(=O)OCC(=O)c1ccc(Br)cc1)Nc1cccc2cccnc12,-2%
COC(=O)c1ccc(N2CCN(CCNC(=O)Nc3ccc(OC)cc3)CC2)cc1,-17%
CC(=O)c1ccc(OCC(O)CN2CCOCC2)cc1 (stereo unspecified),-10%
COc1ccc(/C=C(\CC(=O)O)c2nc3ccccc3s2)cc1O,-1%
COCCOC(=O)c1c(NC(=O)CNCc2ccco2)sc(C(N)=O)c1C,-5%
Cc1ccc2c(CC(=O)NC3=NCCS3)coc2c1,-6%
CC(=O)c1cn(CC(=O)NCc2cccnc2)c2ccccc12,0%
O=C1/C(=C/c2ccncc2)SC(=S)N1C1CCCCC1,-18%
Cc1cccc(Nc2nc(N3CCOCC3)nc(N3CCOCC3)n2)c1,24%
CCCC1(CCC)NC(=O)N(CC(=O)N2CCN(C(=O)c3ccco3)CC2)C1=O,-16%
O=C(NCc1ccccc1C(F)(F)F)C1CC(c2cc(C(F)(F)F)cc(C(F)(F)F)c2)=NO1 (stereo unspecified),-1%
Nc1nc(SCC(=O)NCC2CCCO2)n[nH]1 (stereo unspecified),-1%
CCOC(=O)c1[nH]c2ccc(OC)cc2c1NC(=O)c1ccc(OC)c(OC)c1,7%
COCCSc1nnc(NC(=O)Cc2ccc(OC)cc2)s1,-8%
c1ccc(N2CCN(C3CCSC3)CC2)cc1 (stereo unspecified),26%
COC(C(=O)NNS(=O)(=O)c1ccccc1[N+](=O)[O-])c1ccccc1 (stereo unspecified),2%
O=C(CSc1nnc(NC(=O)c2ccco2)s1)Nc1ccccc1,2%
O=C(O)c1cc(-c2c[nH]c3ccccc23)nc2ccc3ccccc3c12,-22%
CCOc1ccc(S(=O)(=O)Nc2cccc(C(=O)N3CC(C)OC(C)C3)c2)cc1 (stereo unspecified),5%
COc1ccc(-c2nc3cccc(C)n3c2NCC2CCCO2)cc1O (stereo unspecified),-1%
COc1ccc(S(=O)(=O)Nc2ccc3c(c2)C(=O)N([C@H](C)CO)C[C@H](C)[C@@H](CN(C)C(=O)Nc2ccccc2)O3)cc1,-19%

# Shown with bars between the fields: entries from further up
structure | VDR inhibitor
COc1ccc(/C=C(\CC(=O)O)c2nc3ccccc3s2)cc1O | -1%
COCCOC(=O)c1c(NC(=O)CNCc2ccco2)sc(C(N)=O)c1C | -5%
Cc1ccc2c(CC(=O)NC3=NCCS3)coc2c1 | -6%
CC(=O)c1cn(CC(=O)NCc2cccnc2)c2ccccc12 | 0%
O=C1/C(=C/c2ccncc2)SC(=S)N1C1CCCCC1 | -18%
Cc1cccc(Nc2nc(N3CCOCC3)nc(N3CCOCC3)n2)c1 | 24%
CCCC1(CCC)NC(=O)N(CC(=O)N2CCN(C(=O)c3ccco3)CC2)C1=O | -16%
O=C(NCc1ccccc1C(F)(F)F)C1CC(c2cc(C(F)(F)F)cc(C(F)(F)F)c2)=NO1 (stereo unspecified) | -1%
Nc1nc(SCC(=O)NCC2CCCO2)n[nH]1 (stereo unspecified) | -1%
CCOC(=O)c1[nH]c2ccc(OC)cc2c1NC(=O)c1ccc(OC)c(OC)c1 | 7%
COCCSc1nnc(NC(=O)Cc2ccc(OC)cc2)s1 | -8%
c1ccc(N2CCN(C3CCSC3)CC2)cc1 (stereo unspecified) | 26%
COC(C(=O)NNS(=O)(=O)c1ccccc1[N+](=O)[O-])c1ccccc1 (stereo unspecified) | 2%
O=C(CSc1nnc(NC(=O)c2ccco2)s1)Nc1ccccc1 | 2%
O=C(O)c1cc(-c2c[nH]c3ccccc23)nc2ccc3ccccc3c12 | -22%

# (listing goes on)
SMILES,VDR inhibitor
CCCN(CC(=O)Nc1ccccc1Br)CC(=O)Nc1ccc(F)c(F)c1F,-21%
CCCC(=O)N(CCN1CCOCC1)c1nc2ccc(OCC)cc2s1,-20%
O=C(NN1C(=O)C2C(C1=O)C1C=CC2C12CC2)c1ccncc1 (stereo unspecified),2%
COc1ccsc1NC(=O)OCc1ccc(Cl)cc1,-18%
COc1ccccc1CNC(=O)c1cnn2c(C(F)F)cc(C)nc12,10%
Cc1ccc([N+](=O)[O-])cc1NC(=O)CNC1CCCCC1,0%
CC(OC(=O)c1cc[n+]([O-])cc1)C(=O)NCc1ccccc1 (stereo unspecified),-18%
COC(=O)CSc1nc2sc3c(c2c(=O)n1-c1ccc(OC)cc1)CCN(C)C3,21%
CN(C)S(=O)(=O)c1cccc(C(=O)Nc2cc(S(=O)(=O)N3CCOCC3)ccc2N2CCCC2)c1,45µM*
O=S(=O)(Nc1c(F)cccc1F)c1ccc2c(c1)OCCO2,-4%&-7%
COCCNC(=O)C1CC(c2cccc(F)c2)=NO1 (stereo unspecified),-8%
CC(C)c1ccc(/C=N/n2cnnc2)cc1,-11%
CN(CC(=O)Nc1ccccc1Cl)C(=O)c1ccc(N2CCCCCC2)c([N+](=O)[O-])c1,0%
O=C(NCc1cccs1)C(Cc1ccccc1)NS(=O)(=O)c1cccs1 (stereo unspecified),4%
O=C(Nc1ccc(N2CCOCC2)cc1N1CCOCC1)c1cccs1,-6%
COC(=O)[C@H](Cc1ccccc1)NC(=O)Cn1ccc(NC(=O)OCc2ccccc2)nc1=O,-25%
CCn1cc(CN2CCC(C(=O)Nc3cccc(-c4cscn4)c3)CC2)cn1,1%
O=C(COc1ccccc1)N1CCN(S(=O)(=O)c2ccc(Br)cc2)CC1,11%
O=C(O)CCN1C(=O)C2CCCCC2C1=O (stereo unspecified),1%
O=C(CCc1ccccc1)NNC(=O)Nc1ccc(F)c(Cl)c1,-3%
COc1cccc(-c2nn(Cc3ccccc3)cc2CO)c1,1%
COc1cc(C2CC(=O)c3c(O)cc(O)cc3O2)ccc1O (stereo unspecified),-13%
CCOC(=O)c1nnc2c(-c3ccc(F)cc3)c(C)nn2c1N,0%
Cn1cccc1C(=O)N1CCC2(CCN(C(=O)Nc3ccccc3)CC2)CC1,8%
CCc1cc(=S)n2c([nH]c3ccccc32)c1C#N,?
Cc1nnc(N2CCC(C(=O)Nc3ccc(F)cc3)CC2)c2nn(-c3ccc(Cl)cc3)c(C)c12,2%
CCN1C(=O)/C(=C\N(C)C)S/C1=N\S(=O)(=O)c1ccccc1,-13%
CCN1/C(=C\C=C2\C(=O)N(C)C(=S)N2C)Sc2ccccc21,-6%
CCOc1ccc(C(=O)Nc2cc(NC(=O)c3ccc(OCC)c(Cl)c3)cc(C(=O)O)c2)cc1Cl,-12%
COc1ncc2nc(-c3cn(C)c4ccccc34)c(=O)n(C)c2n1,4%
O=C(NCCc1csc(-c2cccnc2)n1)c1ccco1,-14%
CCSc1oc(-c2ccccc2)nc1S(=O)(=O)c1ccccc1,16%
COc1ccc(OCCSCc2nnc(NC(=O)Nc3ccc(Cl)cc3)s2)cc1,-6%
COc1cc(NC(=O)CSc2nnc(Cn3nnc4ccccc43)n2C)cc(OC)c1,-14%
CC1CCN(CC(=O)NCc2ccco2)CC1,-4%
O=C(COc1ccc(F)cc1Br)NCC1(N2CCCCC2)CCCCC1,-18%
CN(C)C(=O)/C(C#N)=C\c1cc(Br)c(Sc2ccc(Cl)cc2)o1,-29%
Cc1ccccc1C(=O)Nc1sc2c(c1C(=O)O)CCC(C(C)(C)C)C2 (stereo unspecified),-12%
Fc1ccc(Cn2nnnc2C(c2ccc(Cl)cc2)N2CCSCC2)cc1 (stereo unspecified),1%
CCOc1cc2[nH]c(=O)n(Cc3cccc(OC)c3)c(=O)c2cc1OCC,8%
